# GALR2 agonist = GALR2 receptor agonists, primary screen, cell-based. Galanin receptor type 2 (Homo sapiens), O43603. GALR2-expressing cells, agonist activation read-out. activation, %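 (tested at 5 µM)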. 140,000 tested, 0.48% active;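 active = above mean plus 3 SD of all compounds, about 5% in these data, not always enough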;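 also: 0% = vehicle buffer wells and 100% = reference agonist at full effect; tested in CHO reporter cells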
# Target sequence (O43603 whole entry, looked up): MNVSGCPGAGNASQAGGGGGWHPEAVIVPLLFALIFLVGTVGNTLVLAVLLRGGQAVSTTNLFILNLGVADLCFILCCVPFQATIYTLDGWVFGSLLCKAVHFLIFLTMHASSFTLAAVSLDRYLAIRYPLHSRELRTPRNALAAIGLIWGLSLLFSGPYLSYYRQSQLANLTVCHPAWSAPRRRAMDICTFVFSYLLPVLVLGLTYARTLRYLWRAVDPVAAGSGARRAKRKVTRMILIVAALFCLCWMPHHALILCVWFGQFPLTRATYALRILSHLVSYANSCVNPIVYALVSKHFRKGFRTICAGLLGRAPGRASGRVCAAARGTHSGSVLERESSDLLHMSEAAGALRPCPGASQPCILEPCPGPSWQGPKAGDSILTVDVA
# RGS16-Gao HTS = modulators of RGS16 binding to Galphao, primary screen, biochemical, human proteins, multiplexed bead flow cytometry; 220,000 tested, 0.38% active; binding response (% of control), % at 10 µM; Regulator of G-protein signaling 16 (Homo sapiens) + Guanine nucleotide-binding protein …; bead-based flow cytometry RGS16-Galphao binding, fluorescence; actives lie on both sides; AID 1441, 2008;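 active = below 25% or above 175%, edge rows of some plates excepted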;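 also: Galphao activated by GDP with aluminum fluoride before binding; 100% = wells without compound and 0% = beads without RGS; some results beyond the cut were filed as inactive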
# Target sequence (O15492 whole entry, looked up): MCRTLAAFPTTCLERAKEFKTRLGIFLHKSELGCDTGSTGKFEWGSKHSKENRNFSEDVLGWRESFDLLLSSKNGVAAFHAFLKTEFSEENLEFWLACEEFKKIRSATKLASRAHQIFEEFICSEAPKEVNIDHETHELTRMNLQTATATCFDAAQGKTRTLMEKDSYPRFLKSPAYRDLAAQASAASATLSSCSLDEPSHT
# Target sequence (P09471 whole entry, looked up): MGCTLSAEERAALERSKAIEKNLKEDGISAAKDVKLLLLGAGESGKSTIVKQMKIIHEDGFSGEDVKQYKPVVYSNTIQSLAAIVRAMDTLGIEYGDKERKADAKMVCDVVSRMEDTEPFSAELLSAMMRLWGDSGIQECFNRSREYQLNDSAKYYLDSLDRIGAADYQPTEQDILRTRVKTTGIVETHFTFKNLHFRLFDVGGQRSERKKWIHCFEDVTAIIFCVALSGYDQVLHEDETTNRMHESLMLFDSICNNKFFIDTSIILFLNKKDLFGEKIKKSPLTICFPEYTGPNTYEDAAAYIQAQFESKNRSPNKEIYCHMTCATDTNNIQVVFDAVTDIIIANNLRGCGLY
# HSV replic up = enhancers of HSV replication in host cells, fold increase, host cell viability | maximum fold increase | 220,000 tested, 0.005% active | HSV replication augmentation in cells;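 active = peak rise of 1.5-fold or more in the series; inconclusive = self-fluorescent or not available for retest; tested in PC3 cells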;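 also: first round at 10 µM; read as green reporter fluorescence; hits show the peak of a series up to 25 µM; 1 = signal of infected wells without compound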
# Insulin prom inh = inhibitors of insulin promoter-driven GFP, primary screen, imaging, TRM-6 cells (human fetal islet line), eGFP reporter, cell count; reporter expression induced with tamoxifen; inhibition, % at 2 µM; 130,000 tested, 0.9% active; AID 1273, 2008;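 active = inhibition above the mean plus 3 SD, with well images judged a real hit on visual review, cut at about 60% in these data, passing the limit was not always enough; inconclusive = inhibition over the cutoff but images rejected on review; inactive = inhibition not above the cutoff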
# PKD1 kinase inh = inhibitors of human PKD1 kinase, biochemical, fluorescence polarization; Serine/threonine-protein kinase D1 (Homo sapiens), Q15139; AID 797, 2007; 200,000 tested, 0.056% active; inhibition, %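 (about 10 µM by stock and volumes)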; PKD1 kinase fluorescence polarization assay;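 active = inhibition of 50% or more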;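 also: controls were vehicle for no effect and a reference inhibitor for full effect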
# Insulin prom inh cell count = further read-out of Insulin prom inh, marked with its call; normalized cell count, %; measured here: cell count, toxicity; reference of the scale not given here;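 cells exposed to compound for 48 h; stained nuclei by imaging scaled within each plate; lower means fewer cells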
# HSV replic up primary fold = also measured in HSV replic up; calls as there; fold increase; compound at 10 µM; measured here: primary screen fold increase 10 uM; tested in PC3 cells;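 GFP signal in the first replicate; 1 = infected wells without compound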
# * = called active by the depositor; i = inactive; ? = inconclusive; · = not tested or not shown.
# Results follow in this order: GALR2 agonist | RGS16-Gao HTS | HSV replic up | HSV replic up primary fold | Insulin prom inh | Insulin prom inh cell count | PKD1 kinase inh
O=C(O)CN(c1ccccc1)S(=O)(=O)c1cc(C(F)(F)F)cc(C(F)(F)F)c1
 : · | 104 | · | · | -23 | 109 | -5
CN(C)Cc1ccc(F)cc1Sc1ccc(Cl)cc1Cl
 : 2.1 | 97 | i | 0.96 | -31 | 79 | -4
O=C(Cn1cc2c(n1)CCCC2)N1CCc2ccccc21
 : -1.5 | 102 | i | 0.89 | · | · | -9
COc1ccc(-c2nn(-c3ccccc3)cc2C(=O)n2nnc3ccccc32)cc1
 : -1.6 | 151 | i | 0.77 | 10 | 123 | 3
O=C1OCc2ccc(NC(=O)c3sccc3Cl)cc21
 : · | 91 | i | 0.91 | · | · | ·
CCC(=O)Nc1ccc(OCc2nc3ccccc3s2)cc1
 : · | 86 | i | 1.2 | 9 | 104 | -1
COc1ccc(C(=O)NCc2nc3ccccc3[nH]2)cc1OC
 : -1.3 | 101 | i | 0.91 | · | · | -1
CCOc1ccc(CCn2c(-c3ccco3)nc3ccccc3c2=O)cc1OCC
 : -1.8 | 101 | i | 0.67 | 64 | 93 | 0
CCOC(=O)/C(=N\Nc1ccc(Br)cc1)N1CC(C)OC(C)C1 (stereo unspecified)
 : · | 106 | i | 0.93 | · | · | ·
COc1cccc(C(=O)Nc2ccc(S(=O)(=O)Nc3nccc(C)n3)cc2)c1
 : 0.1 | 104 | i | 0.88 | 44 | 104 | -4
COc1cc(C(=O)Nc2nc(C)cc(C)n2)cc(OC)c1OC
 : · | 94 | i | 0.97 | · | · | ·
CCCCc1ccc(NC(=O)OC)cc1
 : -0.9 | 97 | i | 0.84 | -42 | 50 | -6
CC1CN(CC(=O)Nc2cc(S(=O)(=O)N3CCCC3)ccc2Cl)CC(C)O1 (stereo unspecified)
 : · | 102 | i | 0.92 | · | · | 1
Cn1cc(CCNC(=O)CC2C(=O)NCCN2Cc2cccc(Oc3ccccc3)c2)cn1 (stereo unspecified)
 : · | 112 | i | 0.95 | -45 | 98 | -4
COc1ccc(S(=O)(=O)N2CCCC2c2cccs2)cc1 (stereo unspecified)
 : · | 105 | i | 1.1 | · | · | ·
COC(=O)c1c(NC(NC(C)=O)C(Cl)(Cl)Cl)sc2c1CCCC2 (stereo unspecified)
 : -0.7 | 106 | i | 0.95 | -46 | 97 | 9
O=C(CSc1ccc2nnc(CCNC(=O)c3ccccc3)n2n1)Nc1ccccc1
 : · | 101 | i | 1.1 | · | · | 2
CCN(CC)CC(=O)c1c[nH]c2ccccc12
 : -1.7 | 103 | i | 0.97 | · | · | -15
COCCn1c(SCC(=O)Nc2ccc(C)cc2C)nc2c(oc3ccccc32)c1=O
 : -0.3 | 108 | i | 0.92 | -7 | 175 | 8
CCc1nnc(NS(=O)(=O)c2ccc(NC(=S)NC(=O)/C=C/c3ccc([N+](=O)[O-])cc3)cc2)s1
 : · | 95 | i | 0.77 | · | · | ·
c1ccc2c(C3=NNC(=NC4CCCCC4)SC3)c[nH]c2c1
 : -1.9 | 5.2* | i | 0.91 | -4 | 56 | 6
CCOC(=O)c1sc(NC(=O)CCN2CC(C)OC(C)C2)c(C(=O)OCC)c1C (stereo unspecified)
 : -2.8 | 105 | · | · | 5 | 141 | -7
Nc1nncn1C(=O)c1ccccc1Cl
 : 0.5 | 96 | i | 0.81 | -25 | 64 | -1
C/C(=N\O)C(=O)Nc1ccccc1
 : · | 102 | i | 1.1 | · | · | ·
Cc1cccc(OCC(=O)Nc2ccc(N3CCN(S(C)(=O)=O)CC3)cc2)c1
 : -2.4 | 99 | · | · | 33 | 103 | 2
CCc1ccc(OCC(=O)NC(NC(=S)Nc2ccccc2OC)C(Cl)(Cl)Cl)cc1 (stereo unspecified)
 : -0.9 | 101 | i | 0.91 | · | · | 5
O=C(CSc1nnc2c(n1)[nH]c1ccc(F)cc12)OCc1ccccc1
 : -0.3 | 94 | i | 0.91 | -9 | 88 | -11
CCCCc1nnc(SCc2ccc(OCC)cc2)n1N
 : -2.2 | 124 | i | 1.1 | · | · | -14
O=C(NCC(=O)N(Cc1cccs1)C(C(=O)NC1CCCCC1)c1ccco1)c1cccs1 (stereo unspecified)
 : -1.3 | 101 | i | 0.73 | -376 | 70 | -6
O=C(CN1C(=O)S/C(=C/c2cc(Br)cs2)C1=O)N1CCOCC1
 : 0.2 | 107 | i | 0.89 | · | · | -7
CCCc1nc(SC2CCCC2)c2c(=O)n(C)c(=O)n(C)c2n1
 : · | 109 | i | 0.96 | · | · | -27
COc1ccc(C(=O)OCC(=O)NC(=O)NC2CCCC2)c(O)c1
 : · | 105 | i | 0.99 | · | · | -2
CCCn1nnnc1NCc1ccc(Cl)cc1Cl
 : · | 101 | i | 1 | · | · | 2
Cc1ccc(NCCC#N)cc1C
 : -0.1 | 108 | i | 0.9 | 4 | 132 | -2
CN(c1ccccc1)S(=O)(=O)c1cccc(NC(=O)c2ccc3ncsc3c2)c1
 : · | 103 | i | 0.88 | · | · | ·
Cc1[nH]c2ccccc2c1C(=O)CSc1nc2ccccc2c(=O)n1-c1ccccc1F
 : · | 104 | i | 0.92 | · | · | 3
CCCCNc1nc2ccccc2n1CC(=O)Nc1c(C)cccc1CC
 : -0.1 | 110 | i | 0.82 | -47 | 68 | 9
N#C/C(=C/c1ccc(Br)o1)C(N)=O
 : -1.1 | 105 | i | 0.99 | -300 | 91 | -5
Cc1nc(N2CCCCC2)c(C#N)c(C)c1[N+](=O)[O-]
 : · | 133 | i | 1 | · | · | -1
CC(=O)c1cccc(NC(=O)CSC(=O)c2ccccc2)c1
 : -0.9 | 94 | i | 0.86 | · | · | -1
CCN1CCN(CC(=O)Nc2ccc(Cl)c(Cl)c2)C(=O)C1=O
 : -3.0 | 106 | i | 0.93 | · | · | -3
Cc1cccc(-c2cc3nc4c(c(NCc5ccco5)n3n2)CCCC4)c1
 : -1.9 | 107 | i | 0.82 | · | · | -1
Cc1ccc(-c2nnc(CSc3nnc(COc4ccccc4)n3-c3ccc(C)cc3)o2)cc1
 : -1.1 | 106 | i | 0.96 | -29 | 124 | -1
CCCCN(C)C/C(O)=C(\C#N)c1nc(-c2ccccc2)cs1
 : -1.8 | 59 | i | 1.1 | -39 | 247 | -8
Cc1cccn2c(CN3CCNC(=O)CC3)c(C(=O)N(C)CCc3ccccc3)nc12
 : · | 98 | i | 1 | · | · | -2
NC(=O)NC1CCCc2c1[nH]c1ccc(Cl)cc21 (stereo unspecified)
 : -0.8 | 78 | i | 0.73 | · | · | -3
OCC(CO)(CO)n1cnnn1
 : -1.9 | 102 | i | 1.1 | · | · | -16
O=C(C[n+]1ccc(C(=O)NCc2ccccc2)cc1)c1ccc2c(c1)OCCO2
 : · | 101 | i | 1 | 13 | 139 | -6
CCCCn1nnnc1SCC(=O)NCc1ccco1
 : -2.4 | 81 | · | · | · | · | -4
CCN(CC)S(=O)(=O)c1ccc(NC(=O)c2cc(C(=O)OC)cc([N+](=O)[O-])c2)cc1
 : -0.5 | 105 | i | 1.1 | 71* | 46* | 5
O=[N+]([O-])c1ccc(N2CCOCC2)nc1
 : -1.4 | 80 | i | 0.99 | · | · | -10
CCOC(=O)C1=C(C)N=C2SCCC(=O)N2C1c1sccc1C (stereo unspecified)
 : -3.7 | 100 | i | 1 | 43 | 101 | 8
Cn1c(-n2c(-c3ccco3)nc3ccccc3c2=O)nc2ccccc21
 : -3.4 | 72 | i | 0.93 | · | · | -1
CSc1nnc(COc2ccc(C)cc2)n1N
 : -1.2 | 91 | i | 0.85 | 69 | 148 | -5
Cc1cc(NC(=O)CSc2nc3ccccc3n2CC(=O)N2CCC(C)CC2)no1
 : -2.8 | 71 | i | 1.1 | -13 | 112 | -4
CC(C)(C)Cc1cc(N)on1
 : -1.2 | 108 | i | 1 | · | · | 2
Cc1ccccc1C(=O)Nc1ccnc(-c2ccncc2)n1
 : · | 102 | i | 0.9 | 0 | 96 | 1
CSc1nc(-c2ccc(Cl)cc2Cl)[nH]c(=O)c1C#N
 : -2.1 | 123 | i | 1 | 79* | 75* | -3
Cc1ccc[n+](CC(=O)c2ccc(-c3ccccc3)cc2)c1
 : -0.1 | 66 | i | 0.74 | 11 | 119 | -4
CC(=O)Nc1ccc(C(=O)OCC(=O)/C(C#N)=C(\C)N)cc1
 : · | 98 | i | 0.94 | · | · | -2

# The results go on:
# Results follow in this order: GALR2 agonist | RGS16-Gao HTS | HSV replic up | HSV replic up primary fold | Insulin prom inh | Insulin prom inh cell count | PKD1 kinase inh
O=C(O)c1ccc(CS(=O)(=O)c2cccc(C(F)(F)F)c2)o1
 : -3.8 | 114 | i | 0.88 | · | · | 4
CCN1C(=O)c2cccc3c(S(=O)(=O)NCc4cccnc4)ccc1c23
 : -1.6 | 104 | i | 1 | -20 | 49 | 1
O=C1c2ccccc2C(=O)N1CCc1nc2ccccc2c(=O)n1-c1ccccn1
 : -2.2 | 82 | i | 1 | 3 | 107 | 3
CCCCCN1CC(O)=C(c2nc3ccccc3[nH]2)C1=N
 : · | 91 | i | 0.95 | 45 | 229 | 5
O=c1c2ccccc2nc2ccc(NCc3ccco3)nn12
 : -0.5 | 100 | i | 1 | -14 | 88 | 1
CC(Sc1nnnn1C1CCCCC1)C(=O)O (stereo unspecified)
 : · | 97 | i | 1.1 | 11 | 119 | -3
Cc1ccc(-n2c(SCC(=O)N/N=C/c3c(C)nn(-c4ccccc4)c3C)nc3ccccc3c2=O)cc1
 : -0.8 | 102 | · | · | · | · | -10
COc1ccccc1NC(=O)Nc1cccc(C(=O)O)c1
 : · | 101 | i | 0.97 | -69 | 98 | 0
O=C(CSc1n[nH]c(-c2ccccc2F)n1)NCC(=O)Nc1ccc(F)c(F)c1F
 : · | 106 | i | 0.99 | · | · | -1
COc1ccccc1CNC(=S)NC1CCCC1
 : -0.8 | 104 | · | · | · | · | 4
CCCn1ncc([C@@H]2C[C@H]3CN(Cc4cccc(Cl)c4)C(=O)[C@]34CCCN24)c1C
 : · | 95 | i | 1.2 | -133 | 96 | 4
O=C(c1ccco1)N1CCN(C(c2ccccc2Cl)c2nnnn2CC2CCCO2)CC1 (stereo unspecified)
 : -2.1 | 97 | i | 0.77 | 16 | 103 | -6
COc1cc(/C=N/NC(=O)COc2ccc(Cl)cc2)ccc1OS(=O)(=O)c1ccc(C)cc1
 : -3.0 | 101 | i | 0.87 | -13 | 90 | -2
Cn1nc(-c2ccccc2)c2cc(C(=O)O)sc21
 : · | 108 | · | · | 21 | 124 | 1
O=C(CN1CCN(S(=O)(=O)c2ccc(Br)cc2)CC1)Nc1ccc2c(c1)OCCO2
 : -1.4 | 100 | i | 0.94 | -204 | 82 | -8
Cc1ccc(-n2nc3ccc(NC(=O)c4ccco4)cc3n2)cc1
 : -1.1 | 98 | i | 1 | 4 | 99 | -6
Cc1c(NC(=O)Nc2ccccc2Cl)sc(=S)n1C
 : -2.0 | 106 | i | 0.85 | 29 | 104 | -2
CC1(C)Cc2c(sc(/N=C/N3CCOCC3)c2C#N)C(C)(C)N1
 : -3.2 | 104 | · | · | -80 | 120 | -40
CCC(Cc1ccccc1)NC(=O)Cn1ncc2ccsc2c1=O (stereo unspecified)
 : · | 101 | i | 0.98 | -21 | 115 | -2
COc1ccc(-n2c(=O)c3c(C)c(C)sc3n(Cc3cccc(F)c3)c2=O)c(OC)c1
 : · | 102 | i | 0.9 | · | · | 2
Cc1ccc(C)c(NC(=O)CSc2nc3c(oc4ccccc43)c(=O)n2-c2ccccc2)c1
 : 2.3 | 108 | i | 0.97 | · | · | 2
COc1ccccc1NS(=O)(=O)c1ccc(C)c(NC(=O)NCCCl)c1
 : · | 103 | i | 1.2 | · | · | ·
CCOC(=O)Cc1csc(NC(=O)CSc2nnc3ccccn23)n1
 : · | 108 | i | 0.89 | -9 | 103 | -4
COc1ccccc1CC(=O)NCC(c1ccco1)N1CCCCC1 (stereo unspecified)
 : · | 95 | i | 0.98 | · | · | 2
CCCCCCCNC(=O)COc1ccc2c(c1)C(=O)CC(C)(C)O2
 : -3.6 | 101 | i | 0.86 | 10 | 76 | -6
Cc1onc(-c2ccccc2Cl)c1C(=O)NC(=S)NCC(=O)c1ccccc1
 : · | 106 | i | 0.93 | · | · | -5
Cc1cccc(C)c1NC(=O)COC(=O)c1c2c(nc3ccccc13)/C(=C\c1ccc3c(c1)OCO3)CCC2
 : 1.0 | 90 | ? | · | 18 | 124 | -3
O=C(Nc1ccc(F)c(Cl)c1)Nc1cnccn1
 : · | 107 | i | 0.98 | · | · | 8
